High-throughput results (PubChem)
HSD17B inhib = HSD17B dehydrogenase inhibition; AID 893; Potency, µM (series often up to 57.1 µM), without a hit: at the top dose activity change, negative = inhibition, usual class: inhibitors; Q99714; 75,000 tested, 7.6% active; recombinant HSD17B10, NADH fluorescence kinetic; many of its hits are not listed in these tables; active = well fitted inhibition curve with a large enough effect; inconclusive = small, poorly fitted or top-dose-only effect; inactive = no such curve, though single readings can be large or run the other way;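 note: the protocol describes HADH2 (HSD17B10) and not the HSD17B4 of the title; nearly all actives have a fitted effect of over 70% in size; most hits overshoot -100% by far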
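Enzyme plus compound, 15 min room temperature; substrate mix added (NAD+ 1 mM, beta-hydroxybutyryl-CoA 90 uM final); plates read kinetically for NADH fluorescence. HADH2 was His-tagged, E. coli-derived, 20 nM.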
The depositor's hits bear a star; ? = inconclusive; [ ] = dose if it differs, or a comment. % is set by controls: 0 for no effect and ±100 for the full control effect; potency is the fitted concentration of half-maximal effect.

Sample of the layout (5 entries):
molecule | HSD17B inhib
CCOc1ccc(N2C(=O)CC(NCCc3ccncc3)C2=O)cc1 (centres undefined) | -11%
COC(=O)Cc1[nH]nc2c1C1(C(=O)N(Cc3ccc(Cl)cc3)c3ccccc31)C(C#N)=C(N)O2 (centres undefined) | -17%
Nc1ccc(N2C(=O)c3ccccc3C2=O)c(Cl)c1 | -4%
CC(C)(Oc1ccc(Cl)cc1)C(=O)N1CCN(c2ccccn2)CC1 | 25µM*
O=C(c1ccc(F)cc1)c1cn[nH]c1-c1ccccc1O | 3%

Main list (from the top)
molecule | HSD17B inhib
CCOc1ccc(N2C(=O)CC(NCCc3ccncc3)C2=O)cc1 (centres undefined) | -11%
COC(=O)Cc1[nH]nc2c1C1(C(=O)N(Cc3ccc(Cl)cc3)c3ccccc31)C(C#N)=C(N)O2 (centres undefined) | -17%
Nc1ccc(N2C(=O)c3ccccc3C2=O)c(Cl)c1 | -4%
CC(C)(Oc1ccc(Cl)cc1)C(=O)N1CCN(c2ccccn2)CC1 | 25µM*
O=C(c1ccc(F)cc1)c1cn[nH]c1-c1ccccc1O | 3%
C[C@@H]1CCCN(C[C@@H](O)CN2CCCc3ccccc32)C1 | 0%[11.4 µM]
OCC1O[C@H](Oc2ccc(O)cc2)C(O)C(O)C1O (some centres undefined) | -8%
CC(C)Nc1nc(NC(C)C)nc(N(C)C(N)=O)n1 | 4%
COc1ccc(C2OC(=O)CC2C(=O)NC(C)C)cc1 (centres undefined) | 9%
COc1ccc(Cl)cc1N1CCN(CCNC(=O)Nc2ccccc2C)CC1 | 10%
CCCCN(CCCNC(=O)C1CCCN(S(=O)(=O)CC)C1)Cc1ccccc1 (centres undefined) | -5%
CCCCCn1c(=O)c(C(=O)OCC)c(O)c2ccccc21 | -5%
Cc1oc(-c2cccc(Cl)c2)nc1CN1CCC(C(=O)N2CCN(c3ccccn3)CC2)CC1 | -28%
Cc1cccc(CNc2nc(-c3ccc(C(=O)N(C)C)cc3)nc3ccccc23)c1 | ?
Cc1noc(C)c1C(=O)N1CCC2(CC1)CCN(c1cccc(-c3ccccc3)c1)CC2 | ?
O=C(Oc1ccc(-c2nnco2)cc1)N1CCOCC1 | 5%
CC(C)(C)NC(=O)CSc1nnnn1C(C)(C)C | 0%
O=C(c1ccccc1)c1cncc(Br)c1 | -15%
FC(F)(F)c1ccc(C2[C@H]3CN(CC4CCCCC4)[C@H](c4ccccc4)C34CC2(c2cccnc2)C4)cc1 (some centres undefined) | 1%
Cc1oc2cc(O)cc(O)c2c(=O)c1-c1ccc2c(c1)OCCCO2 | -8%
COc1nc(N(C#N)CC(N)=O)nc(N2CCCC2)n1 | -1%
CCOC(=O)c1[nH]c(C)c(C(=O)Nc2ccc(C)c(C)c2)c1C | 6%
Cc1cc(C)c2c(CC(=O)NCc3ccco3)coc2c1 | -2%
Cc1nc2c(nnn2Cc2ccccc2)c(=O)n1-c1ccccc1 | 6%
CCOC(=O)c1cccc(NC(=O)CCc2c(C)nc3ncnn3c2C)c1 | 0%
CCOC(=O)C(C)NC(=O)C(NC(=O)C1CCC(CC)CC1)C(C)C (centres undefined) | 13%
CCOc1ccc(C(=O)NCc2cccs2)cc1 | 4%
CC(=O)c1ccc(OCC(O)CN2CCCC(C)C2)cc1 (centres undefined) | 10%
Cc1cc(C)c2c(CN3CCN(CCO)CC3)cc(=O)oc2c1 | 3%
CO[C@H]1COC(=O)[C@H]2CCCN2C(=O)[C@@H](C)COC(=O)C/C=C\[C@@H]1C | 3%[11.4 µM]
Nc1nnc(SCc2coc(-c3ccc(Cl)cc3)n2)s1 | 3%
CCOCCCn1cnc2c(c1=O)c1nc3ccccc3nc1n2-c1ccccc1 | -19%
COc1ccc(Br)cc1C1CC(=O)N2CN(Cc3ccccc3)CSC2=C1C#N (centres undefined) | ?
CC(C)OCCCNC(=O)c1ccncc1 | 12%
COc1ccc(Cl)cc1N1CC(c2nc3ccccc3[nH]2)CC1=O (centres undefined) | -3%
O=S(=O)(c1ccc(OCC(O)CN2CCC(Cc3ccccc3)CC2)cc1)N1CCOCC1 (centres undefined) | -4%
CO/N=C1\CN(c2nc3c(cc2F)c(=O)c(C(=O)O)cn3C2CC2)CC1CN (centres undefined) | ?
O=C(NCCCN1CCN(Cc2ccccc2)CC1)c1nnc(Cc2c(F)cccc2Cl)o1 | 6%
CCC(C)Cn1c(S(=O)(=O)O)nc2ccccc21 (centres undefined) | 1%
CCOC(=O)c1ccc(N2C(=O)c3n[nH]c(C)c3C2c2ccc(OC)cc2OC)cc1 (centres undefined) | 0%
CC(=O)Nc1ccc(S(=O)(=O)N2CCCN(S(=O)(=O)c3ccc(NC(C)=O)cc3)CC2)cc1 | -2%
COc1cc(C(=O)NCCC(=O)NCCCN2CCCCC2C)cc(OC)c1OC (centres undefined) | 7%
C1CCC2OC2C1 (centres undefined) | 1%
CCN(CC)c1ccc2cc(C(=O)Nc3ccc(-n4cnnn4)c(OC)c3)c(=O)oc2c1 | ?
COC(=O)c1[nH]c2ccc(C)cc2c1NC(=O)C(C)N1CCN(C2CCCCC2)CC1 (centres undefined) | 20µM*
O=C(c1ccco1)N1CCN(c2ncnc3c(-c4ccccc4)nsc23)CC1 | 32µM*
CCOC(=O)C1=C(C)N=c2s/c(=C\C(=O)OC)c(=O)n2C1c1ccc(OC)cc1 (centres undefined) | -13%
CCc1cc2c(SCC(=O)O)ncnc2s1 | 3%
Cc1cccc(-n2c(CNC(=O)c3ccccc3)nnc2SCC(=O)Nc2nccs2)c1 | 13%
O=C(Cn1cccc1)Nc1ccc(OC(F)(F)F)cc1 | -6%
O=C1CC(c2cccs2)Cc2nc(NCC3CCCO3)ncc21 (centres undefined) | 0%
CN(C)c1ccc(-c2cc(N(C)Cc3ccco3)ncn2)cc1 | 13µM*
Cc1nc2nc(-c3ccco3)[nH]n2c(=O)c1Cc1ccccc1 | ?
O=C(O)c1ccccc1Cl | 1%
Cn1c(=O)c2c(nc(NCCNC(=O)c3ccco3)n2Cc2ccc(Cl)cc2Cl)n(C)c1=O | -3%
CCCCc1nnc(SCCSc2nnc(CCCC)n2N)n1N | 14%
O=C(Cn1c(=O)n(Cc2ccco2)c(=O)c2ccccc21)NCC1CCCO1 (centres undefined) | -1%
O=C1C(=O)N(CCCN2CCOCC2)C(c2cccs2)/C1=C(/O)c1ccc2c(c1)OCO2 (centres undefined) | -3%
O=S(=O)(CCSc1nc2ccccc2o1)c1nc2ccccc2s1 | -2%
COC(=O)c1ccccc1NC(=O)C1CC(=O)N(c2ccc(F)cc2)C1 (centres undefined) | 0%

More compounds follow.
molecule | HSD17B inhib
Cc1ccc(C(=O)O)cc1S(=O)(=O)N1CCC(C(=O)O)CC1 | 8%
CCN1CCN(C2CCN(C(C)=O)CC2)CC1 | 2%
O=C(NCC12CC3CC(C1)CC(CNC(=O)N1CCCC1)(C3)C2)N1CCCC1 | 0%
Cc1c(C#N)c2ccccc2n1CC(=O)NCC1CCCO1 (centres undefined) | 1%
Cc1ccc2c(c1)N(C(=O)CSc1nncn1C)C(C)(C)c1ssc(=S)c1-2 | -30%
CN(C)CCOC(=O)COc1ccc(Cl)cc1 | -1%
CCc1cc(=O)oc2cc(C)cc(OC(C)C(=O)O)c12 (centres undefined) | 32µM*
CC(=O)Nc1ccc(S(=O)(=O)N2CCCN(S(=O)(=O)c3ccc(C)cc3)CC2)cc1 | 4%
CNc1oc(-c2ccccc2)nc1C#N | 25µM*
COc1ccc2[nH]c(=O)c(CN(C(=O)c3cccnc3)c3ccccc3OC)cc2c1 | 25µM*
O=C(Nc1cccc(NC(=O)c2ccc(Br)o2)n1)c1ccc(Br)o1 | ?
O=C(Nc1ccc(Oc2ccccc2)cc1)c1ccco1 | -7%
CCC1CCCCN1Cc1nc2c(c(=O)n(C)c(=O)n2C)n1CCC(C)C (centres undefined) | -8%
Cc1cc(C(=O)NCCCN2CCCC2=O)no1 | -2%
CCCC(=O)Nc1ccc(-c2nc3cc(C)ccc3o2)cc1 | 25µM*
Cc1cc(C)nc(-n2nc(C)c(C3(O)C(=O)Nc4ccc(F)cc43)c2N)n1 (centres undefined) | -1%
CC(NC(=O)C1CCN(c2nnc(-n3cccc3)s2)CC1)C12CC3CC(CC(C3)C1)C2 (centres undefined) | 8%
Cc1nc(CC(=O)Nc2nc(C(C)(C)C)cs2)cs1 | -7%
O=C(Nc1ccccc1Oc1ccccc1)C1CC1 | 9%
CN(C)C(=O)c1ccc(-c2nccc(NCc3cccs3)n2)cc1 | -3%
O=C(O)c1nc2cc(Cl)c(Cl)cc2[nH]c1=O | -1%
O=C(CSc1nnc(-c2cnccn2)n1Cc1ccco1)Nc1ccc(Br)cc1 | -10%
Cc1cccc(N2CCN(C(=O)C3CCN(S(=O)(=O)c4cccc5cccnc45)CC3)CC2C)c1 (centres undefined) | 0%
Cc1ccc(/C=N/n2c(C)nnc2C)cc1 | 2%
CCOC(=O)CC(/C(C)=N\O)c1ccccc1 (centres undefined) | 2%
Cc1ccccc1NCc1ccccc1O | -3%
Cc1sc2nc(SCC(=O)NCc3ccco3)n(-c3ccccc3)c(=O)c2c1C | ?
CCN(CC)CCCN(Cc1cc2cc3c(cc2[nH]c1=O)OCCO3)C(=O)Nc1ccccc1 | 25µM*
CC(=O)N1c2ccccc2C(=O)OC1c1cccnc1 (centres undefined) | 32µM*
CCc1ccccc1NC(=O)N[C@@H](C)C(=O)OC | 9%

Sorted by length of the SMILES (lowest first): part of the list above
molecule | HSD17B inhib
Cc1cc(C(=O)NCCCN2CCCC2=O)no1 | -2%
CC(=O)N1c2ccccc2C(=O)OC1c1cccnc1 (centres undefined) | 32µM*
Cc1sc2nc(SCC(=O)NCc3ccco3)n(-c3ccccc3)c(=O)c2c1C | ?

Going on with the list.
molecule | HSD17B inhib
Cc1c(C(=O)NCCCN2CCOCC2)sc2ncnc(N3CCN(c4ccccc4)CC3)c12 | -2%
O=C1c2oc3ccc(F)cc3c(=O)c2C(c2ccncc2)N1CCN1CCOCC1 (centres undefined) | 6%
CC(=O)OCCNC(=O)c1cccnc1 | -16%
CC(=O)C1=C(O)C(=O)N(c2cc(C(C)(C)C)on2)C1c1ccc(Br)cc1 (centres undefined) | -10%
CC(=O)Nc1ccc(NC(=O)N2CCCCC2)cc1 | 6%
CCCCOC(=O)c1ccc(NC(=O)C2CCCO2)cc1 (centres undefined) | ?
O=C1CCC(=O)N1OCCCOc1ccc(Br)cc1Cl | 13%
O=C(c1ccccc1)c1c[nH]c2cc3c(cc2c1=O)OCO3 | 4%
COc1ccc(-c2n[nH]c(C)c2-c2ccc(Cl)cc2)c(O)c1OC | -20%
CC1CN(S(=O)(=O)c2cccc(-c3cn4cccnc4n3)c2)CC(C)O1 (centres undefined) | 7.9µM*
Cc1ccc(C)c(N2CCN(C(=O)CCCCn3c(=O)[nH]c4ccccc4c3=O)CC2)c1 | -5%
O=C(Nc1ccc(CN2CCCCC2)cc1)c1ccc(Br)o1 | -2%
CCCc1nn(C)c2c1C(c1ccncc1)C(C#N)=C(N)O2 (centres undefined) | 0%
COc1ccc(/C(O)=C2/C(=O)C(=O)N(Cc3cccnc3)C2c2ccccn2)cc1 (centres undefined) | -12%
CCCS(=O)(=O)N1CCCC(C(=O)NCCCN(CC)c2cccc(C)c2)C1 (centres undefined) | 0%
Cc1cc(NC(=O)C23CCC(C)(C(=O)O2)C3(C)C)no1 (centres undefined) | 7%
ON(CCc1ccncc1)Cc1ccccc1 | 4%[11.4 µM]
O=c1nc2n(c3ncccc13)CCC2 | 3%
Cc1cc(C(=O)Nc2sc3c(c2C#N)CCC(C)C3)cs1 (centres undefined) | 25µM*
Nc1nnc(-c2ccco2)s1 | -4%
COc1ccc(CNC(=O)c2cccc(N(C)C)c2)cc1 | -23%
CCc1ccccc1NC(=O)CSc1nnc([C@@H](NC(=O)OC(C)(C)C)C(C)CC)o1 (some centres undefined) | 5%
COc1ccc(-c2cc(C(=O)N(C)Cc3ccccc3)no2)cc1OC | -15%
CCCCN1CCC(n2c(=O)[nH]c3ccccc32)CC1 | -5%
Cc1nc(N2CCN(Cc3ccccc3)CC2)nc2c1C(=O)CC(c1ccco1)C2 (centres undefined) | -12%
COc1ccc(N2CC(C(=O)Nc3ccc(S(=O)(=O)Nc4nc(C)cc(C)n4)cc3)CC2=O)cc1 (centres undefined) | 6%
COCCNC(=O)c1cc2c(=O)n3cccc(C)c3nc2n1C | 13µM*
Cn1c(=O)c(-c2cc(F)cc(F)c2)nc2cnc(N3CCOCC3)nc21 | 14%
COc1ccc(N2CCN(CCNC(=O)C3CC(=O)N(C4CCCC4)C3)CC2)cc1 (centres undefined) | 3%
N#CNC1=NCN(CCc2ccccc2)CN1 | 17%
CCOc1cccc(N)c1 | -1%
N#C/C(C(=O)N1CCOCC1)=c1\s/c(=C/c2ccncc2)c(=O)n1-c1ccccc1 | 7%
O=S(=O)(NCc1ccc(Cl)cc1)c1cnc[nH]1 | 6%
CN1CCN(C(=O)c2ccccc2NC(=O)CCN2C(=O)c3ccccc3C2=O)CC1 | 1%
O=C(c1ccccc1)c1ccc(OC(=O)N2CCCC2)cc1 | 2%

These rows are one share of the data; count on the stated rates, not on these rows.
